Bioassay records (PubChem BioAssay)
D2 ag: agonists of human D2 dopamine receptor (beta-arrestin); DiscoveRx PathHunter D2 beta-arrestin, luminescence, 90 min; 100% = 57 uM dopamine signal; activation, % (no concentration beside the values); actives 0.084% (n = 360,000); AID 624465; in the data active = activation above about 40%; inconclusive = about 15% to 40%; inactive = below about 15%; note: compound concentration not given in the record; the text of the record calls up to 30% inactive
Target sequence (P14416 whole entry, looked up): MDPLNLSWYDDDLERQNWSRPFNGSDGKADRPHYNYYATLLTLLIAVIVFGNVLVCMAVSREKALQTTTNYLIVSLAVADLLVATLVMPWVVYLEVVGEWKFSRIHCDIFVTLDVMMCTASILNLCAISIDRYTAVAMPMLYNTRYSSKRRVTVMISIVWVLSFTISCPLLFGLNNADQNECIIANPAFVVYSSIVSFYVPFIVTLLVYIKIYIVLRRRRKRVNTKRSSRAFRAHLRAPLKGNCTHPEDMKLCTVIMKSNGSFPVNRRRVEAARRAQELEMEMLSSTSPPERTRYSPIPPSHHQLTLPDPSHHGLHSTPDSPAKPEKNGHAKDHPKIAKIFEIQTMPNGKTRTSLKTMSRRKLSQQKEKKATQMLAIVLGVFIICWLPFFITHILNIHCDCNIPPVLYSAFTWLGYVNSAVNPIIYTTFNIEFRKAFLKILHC
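DiscoveRx PathHunter D2 beta-arrestin cells (2,100/well) attached overnight, then compound-stimulated 90 min at 37 C in HBSS/10 mM HEPES/0.1% Tween-20 buffer; beta-galactosidase complementation read by luminescence after 1 h at ambient temperature. Dopamine 57 uM final (EC100) as control.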
gsp antag: antagonizes gsp, the McCune-Albright syndrome mutation. AID 624288. actives 0.4% (n = 340,000). Potency, µM (series often up to 76.9 µM), inactives show top-dose activity change, negative = inhibition, hits mostly inhibitors. gsp-mutant cells, cAMP HTRF, 30 min; control for the full effect not named in the record; active = falling curve of any shape with a large fitted effect; inconclusive = falling curve, mostly with a smaller effect; inactive = flat or rising curve; cell line not stated here;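 note: intracellular cAMP measured with PDE inhibitor Ro 20-1724 present during compound exposure; potency is the fitted concentration of half-maximal effect; % is set by controls: 0 for no effect and ±100 for the full control effect; nearly all actives have a fitted effect of over 65% in size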
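G418-selected cells were plated in DMEM/10% FBS for 16-24 h at 37C, then treated with compounds plus the PDE inhibitor […] (300 uM solution added) for 30 min at 37C. Intracellular cAMP was measured by HTRF after 30 min lysis at room temperature.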
PINK1 modulator: modulators of PINK1 expression; PINK1 immunofluorescence, high-content cytometry, 24 h; Potency, µM (doses to about 76.6 µM), for inactives: top-dose activation (PINK1 increase), most hits filed as activators; actives 0.2% (n = 410,000); AID 624263; active = well fitted activation curve with a large enough effect; inconclusive = small, poorly fitted or top-dose-only effect; inactive = flat fitted curve, though single readings scatter; cell line not stated here;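 note: potency is the fitted concentration of half-maximal effect; % of control where 0% means no effect; nearly all actives have a fitted effect of over 65% in size; a mitochondrial uncoupler was the plate control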
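Fluorescence from anti-PINK1 antibody, together with nuclear and cell stains, was scanned on a laser-scanning cytometer. Before staining, stable-line cells were incubated 24 hours with compounds at 5 concentrations; primary antibody 12 h at 10 degrees C.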
ClpP mod: qHTS Assay for Activators of ClpP | ATP-dependent Clp protease proteolytic subunit (Bacillus subtilis (strain 168)), P80244 | purified B. subtilis ClpP, FRET peptide cleavage, 20 min | Potency, µM (highest dose often 57.5 µM), for the others: at the highest dose activity change, negative = active | actives 1.9% (n = 340,000); active = well fitted falling curve with a large enough effect; inconclusive = small, poorly fitted or top-dose-only effect; inactive = no such curve, though single readings can be large or run the other way; note: potency is the fitted concentration of half-maximal effect; the source files actives as falling curves though it sought activators and does not explain the sign; nearly all actives have a fitted effect of over 65% in size; many hits overshoot -100%
Target sequence (P80244 whole entry, looked up): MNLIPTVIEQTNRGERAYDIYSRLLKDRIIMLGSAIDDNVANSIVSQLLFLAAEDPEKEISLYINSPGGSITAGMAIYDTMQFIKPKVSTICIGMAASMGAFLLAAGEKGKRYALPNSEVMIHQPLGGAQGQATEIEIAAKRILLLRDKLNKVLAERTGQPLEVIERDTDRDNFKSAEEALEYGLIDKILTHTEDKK
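FRET quenching reversal measured ClpP activation: 10 microg/mL B. subtilis ClpP at pH 8 with the FRET-FV decapeptide, read at 430 nm after 320 nm excitation. The 20-min minus 0-min signal was scaled between DMSO/no-enzyme wells and ADEP (5.8 microM final).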
Menin MLL FP FL: displaces fluorescein MLL peptide from human menin | Fluorescence polarization, fluorescein-MLL peptide displacement from menin | FP activity change, % at 61.4 µM | 290,000 tested, under 10 active | AID 1766; inconclusive = falling polarisation curve, or a change in total fluorescence; inactive = total fluorescence flat and polarisation flat or rising; no compound was filed as active; the % refers to the polarisation; negative = inhibition;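 note: % of control where 0% means no effect; inhibitors lower the polarisation; unlabelled MLL peptide was the positive control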
Sfp inh: Sfp phosphopantetheinyl transferase inhibition | actives 3.5% (n = 310,000) | Q9F4F7 | Biochemical Sfp PPTase activity, qHTS | Potency, µM, for the others: max response, negative = inhibition, hits mostly inhibitors; active = well fitted inhibition curve with a large enough effect; inconclusive = small, poorly fitted or top-dose-only effect, or another doubt; inactive = no such curve, though single readings can be large or run the other way;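 note: the enzyme is Sfp with the accession as filed and its product quenches rhodamine fluorescence; potency is the fitted concentration of half-maximal effect; 0% = enzyme reaction without inhibitor and -100% = no enzyme wells; top concentration of the series not given in the record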
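Fluorescence-quenching assay with 15 nM Sfp, 5 uM rhodamine-CoA and 12.5 uM BHQ-2-labelled ybbR peptide in pH 7.6 Hepes/MgCl2 buffer. Enzyme was pre-incubated with compound for 15 min at room temperature. Rate was taken from the 30-min fluorescence change (525/598 nm).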
gsp ag: activates gsp, the McCune-Albright syndrome mutation; gsp mutant cells, cAMP HTRF, 30 min; control for the full effect not named in the record; Potency, µM (series often up to 76.9 µM), for the others: at the highest dose activation (cAMP increase), actives largely listed as activators; actives 0.13% (n = 340,000); AID 624287; active = well fitted activation curve with a large enough effect; inconclusive = small, poorly fitted or top-dose-only effect, or another doubt; inactive = no such curve, though single readings can be large or run the other way; cell line not stated here;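 note: phosphodiesterase inhibitor Ro 20-1724 added with compounds to block cAMP breakdown; potency is the fitted concentration of half-maximal effect; nearly all actives have a fitted effect of over 60% in size; about a fifth of the inactives were tested at one dose only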
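Cells stably selected in G418 were plated at 2000/well, grown 16-24 hr, then given compounds in DMSO with the PDE inhibitor […] (300 uM solution added) for 30 min at 37C; cAMP was read by HTRF.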
The depositor's hits bear a star; ? = inconclusive; / = not tested or not shown; & = joins results of further samples; [ ] = dose if it differs, or a comment.

mol	D2 ag	gsp antag	PINK1 modulator	ClpP mod	Menin MLL FP FL	Sfp inh	gsp ag
COC(=O)C(C)Sc1nnc(Cc2cc(=O)[nH]c(=O)[nH]2)n1-c1cc(C)ccc1C (configuration not stated)	-2.1	8%	-0.3%	2.2%	-4.1	-15%	9%
O=C(CSc1nc(-c2ccccc2)cs1)NCCN1C(=O)CSC1=O	-4.7	-7%	0.0%	-0.9%	1.9	8%	-26%[15.4 µM]
COc1ccc(CN2CCN(C(=O)c3cccs3)CC2)cc1	8.6	6%	-1.1%	-8.6%	3.0	-24%	-4%
Cc1cc(C)c(C(N)=O)c(SCC(=O)c2cc(C)c(C)cc2C)n1	-0.4	-13%	9.1%	-3.8%	3.8	16%	0%
COc1cccc(CNC(=O)[C@H](C)NC(=O)N2CC(=O)Nc3ccccc32)c1	-1.2	/	1.3%	0.8%	/	/	-66%[inhibitor]
O=C(NC(=S)Nn1cnnc1)c1ccccc1Br	-2.5	2%	0.5%	1.1%	2.7	25µM*	13%
O=C(Nc1ccc2c(c1)OCCO2)c1cccnc1Oc1ccc(Cl)cc1	-4.5	-25%	5.2%	2.1%	-2.4	-12%	-2%[15.4 µM]
O=C(CN1CCN(C(=O)CNC(=O)c2ccc3c(c2)OCO3)CC1)Nc1ccc(F)cc1	-4.7	10%	-1.0%	-7.4%	/	/	1%

mol	D2 ag	gsp antag	PINK1 modulator	ClpP mod	Menin MLL FP FL	Sfp inh	gsp ag
O=C(Nc1cccc(Cl)c1)OCc1cn(-c2ccccc2)nn1	-6.5	-5%	6.3%	/	-1.7	7%	-3%
CN(Cc1ccccc1F)C(=O)COc1ccc(C(=O)c2ccccc2)cc1	-2.4	?	-0.5%	/	-3.6	-14%	3%
N#Cc1ccc(S(=O)(=O)N2CCN(CC(=O)NCC3(N4CCOCC4)CCCCC3)CC2)cc1	?	-2%	-0.1%	-0.3%	/	/	15%
Cc1cc2nc(C)n(CCCNC(=O)Nc3ccccc3)c2cc1C	1.0	-11%	-3.5%	-0.2%	0.6	13%	-12%
O=C(OCCCOC(=O)c1cc[n+]([O-])cc1)c1cc[n+]([O-])cc1	-1.9	8%	1.6%	-2.1%	/	26%	?
Cc1c(N2C(=O)C(=O)/C(=C(/O)c3ccc(Br)cc3)C2c2cccnc2)c(=O)n(-c2ccccc2)n1C (configuration not stated)	-5.6	10%	2.6%	/	-0.3	8%	41%[15.4 µM]
N/C(=N\OC(=O)Cc1ccc(-c2ccccc2)cc1)c1cccc([N+](=O)[O-])c1	0.2	-23%	1.2%[38.3 µM]	-1.3%	0.5	4%	-8%
COc1ccc(N2CC(C(=O)NCCc3ccc(Cl)cc3)CC2=O)c(OC)c1 (configuration not stated)	-6.9	5%	-1.2%	-2.9%	/	/	-3%[15.4 µM]

mol	D2 ag	gsp antag	PINK1 modulator	ClpP mod	Menin MLL FP FL	Sfp inh	gsp ag
CN(CC(=O)Nc1c(Cl)cccc1Cl)C(=O)c1ccccc1SCC(=O)N1CCCC1	-9.0	7%	0.2%	/	/	22%	-4%[15.4 µM]
COc1ccc(NC(=O)Nc2nnc(C(C)(C)C)s2)cc1	0.8	6%	2.6%	-0.5%	2.4	26%	22%
CCN1CCn2c1nc(N1CCOCC1)nc2=O	0.0	1%	/	-1.0%	0.9	16%	-31%[inhibitor]
COc1cc(C(=O)NCc2nnc(SCC(=O)N3CCOCC3)o2)cc(OC)c1OC	-0.8	13%	1.8%	-0.3%	0.3	-2%	-33%[inhibitor]
C=C(C)c1cccc(C(C)(C)NC(=O)Nc2ccc(Cl)cn2)c1	-2.4	-1%	?	0.4%	3.1	-1%	0%[15.4 µM]
COCCN(C(=O)COC(=O)/C=C/c1ccccc1Cl)c1c(N)n(Cc2ccccc2)c(=O)[nH]c1=O	-4.6	-4%	1.3%	?	/	/	1%
Cc1cccnc1NC(=O)CCn1c(=O)oc2ccccc21	1.0	3%	0.0%	-0.9%	/	8%	27%
O=C(CC1NCCNC1=O)Nc1ccc(Oc2ccccc2)cc1 (configuration not stated)	1.1	15%	-0.4%[38.3 µM]	-1.4%	0.1	-14%	-28%

mol	D2 ag	gsp antag	PINK1 modulator	ClpP mod	Menin MLL FP FL	Sfp inh	gsp ag
COc1ccc(OC)c(NC(=O)CSCc2cnn(-c3ccccc3)c2-n2cccc2)c1	-1.7	-6%	-2.3%	32µM*	3.9	9%	0%
C[C@H](CO)N1C[C@H](C)[C@@H](CN(C)C(=O)Nc2ccc(C(F)(F)F)cc2)Oc2c(NC(=O)NC3CCCCC3)cccc2C1=O	-0.8	?	4.4%	0.0%	/	/	-37%[inhibitor]
CCOc1cc(/C=N/NC(=O)c2c(C)nc3ccc(Cl)cn23)ccc1O	-2.9	/	4.4%	-7.4%	/	/	-9%
COc1cccc(S(=O)(=O)NCc2ccc(C(=O)NCC3CCCO3)cc2)c1 (configuration not stated)	-1.0	10%	1.9%[38.3 µM]	-0.6%	3.5	-8%	11%
N#Cc1c(/N=C/c2ccc(-c3ccccc3C(=O)O)o2)sc2c1CCCC2	14	?	-1.0%	-1.0%	14	3%	10%[15.4 µM]
CCc1nc2ccc(C(=O)N3CCN(S(=O)(=O)CC)CC3)cn2c1N(C)C(=O)c1cccc(OC)c1	-5.4	/	-0.6%	-4.0%	/	/	/
COc1cccc(CN(C)C(=O)/C=C/c2ccc(S(=O)(=O)N3CCCCCC3)cc2)c1	6.6	-22%	1.9%	-1.3%	/	-6%	-9%[15.4 µM]
Cc1onc(-c2ccccc2Cl)c1C(=O)N1CCc2ccccc2C1	-2.1	?	7.2%[38.3 µM]	-1.2%	1.1	-6%	-54%[inhibitor]

mol	D2 ag	gsp antag	PINK1 modulator	ClpP mod	Menin MLL FP FL	Sfp inh	gsp ag
CCOC(=O)c1c(S(=O)(=O)N(C)Cc2ccccc2)c(C)n(C)c1C	-14	6%	-1.1%	-0.4%	1.7	17%	23%
Cc1ccc(S(=O)(=O)n2nc(C)c(Br)c2C)c(C)c1C	-4.3	-8%	0.0%	-1.2%	-1.8	5%	-6%
Cc1cccc(C)c1NC(=O)COC(=O)c1cc[n+]([O-])cc1	-6.5	3%	2.2%	3.5%	/	/	-8%[15.4 µM]
Cn1nnnc1SCC(=O)Nc1cc(S(=O)(=O)N2CCCC2)ccc1Cl	3.2	/	0.1%	/	-2.8	8%	18%[15.4 µM]
Cc1ccc(C2OC(=O)c3ccccc32)cc1 (configuration not stated)	-2.5	2%	3.5%	0.5%	-1.3	-10%	-7%
Cc1ccc2nc(-c3ccco3)c(CC3CCCCC3)n2c1	-10	/	3.2%	4.1%	/	/	/
O=C(CSc1nc2ccccc2c(=O)n1-c1ccc(F)cc1F)Nc1ccc(N2CCOCC2)cc1	-2.2	9%	1.3%	-2.7%	12	-12%	?
CCOc1cc(CN2CCCC(CO)(Cc3ccc(F)cc3F)C2)ccc1OC (configuration not stated)	-5.1	6%	0.9%	0.1%	9.5	7%	5%

mol	D2 ag	gsp antag	PINK1 modulator	ClpP mod	Menin MLL FP FL	Sfp inh	gsp ag
CCCCCCSc1ccc(-c2nc3ccc(C)cn3c2NCc2ccccc2)cc1OC	-9.1	5%	?	3.2%&4.2%	/	/	/
COC(=O)c1cccc(N2C(=O)c3cccnc3C2=O)c1	-2.4	-4%	1.1%	1.0%	2.0	-6%	-27%
CN(C)CCCNc1oc(/C=C/c2ccccc2)nc1C#N	-3.7	7%	0.4%	-1.3%	-0.6	5%	13%[15.4 µM]
CC(=O)Nc1ccc(NC(=O)[C@@H](NC(=O)c2ccccc2F)C(C)C)cc1	2.6	-4%	4.2%	/	-11	12%	?
O=C(NC(=S)Nc1ccccc1N1CCCC1)c1cccs1	-6.4	-8%	4.5%	-1.9%	1.9	?	3%
CC(OC(=O)C1CC(O)CN1S(=O)(=O)c1ccccc1[N+](=O)[O-])C(=O)N1CCCCC1 (configuration not stated)	-4.9	-6%	0.9%	0.3%	3.7	-22%	-7%
CCOC(=O)C1=C(C)NC(=O)NC1c1ccc(-c2ccc(F)cc2)o1 (configuration not stated)	0.8	-30%	-0.9%	/	3.7	-5%	-6%[15.4 µM]
CCOc1cc(/C=N/NC(=O)C(=O)NCC2CCCO2)ccc1OCC(=O)N1CCOCC1 (configuration not stated)	1.7	3%	-0.2%	-1.4%	-1.5	5%	-3%[15.4 µM]

mol	D2 ag	gsp antag	PINK1 modulator	ClpP mod	Menin MLL FP FL	Sfp inh	gsp ag
CC(=O)N1c2ccc(S(=O)(=O)N3CCCC(C(=O)N4CCCC(C)C4)C3)cc2CC1C (configuration not stated)	8.8	-8%	0.2%	-2.8%	/	7%	-20%
O=c1[nH][nH]c(C(F)(F)F)c1C=NCc1ccccc1Cl	-1.2	-18%	1.1%	-2.9%	-0.1	10%	-7%
O=C(N/N=C/c1cccc(C(F)(F)F)c1)c1cc2c(s1)-c1ccccc1CC2	-5.1	-8%	0.1%	?	-3.1	-24%	2%
CCOC(=O)OC(C)OC(=O)C1N2C(=O)C(NC(=O)C(N)c3ccccc3)C2SC1(C)C (configuration not stated)	/	/	-0.6%	/	4.4	?	/
CCOC(=O)C1CCN(C(=O)c2cc3cc(Cl)ccc3[nH]2)CC1	-0.5	-6%	2.4%	/	-4.4	4%	-8%[15.4 µM]
COC(=O)[C@@H](NC(=O)NCc1ccc(F)cc1)C(C)C	-0.1	2%	7.3%[38.3 µM]	-0.7%	?	12%	34%
CCC(C)C1(C2CCCC2)NC(=O)NC1=O (configuration not stated)	-2.6	8%	-1.5%	/	/	/	?
Cc1cccc(-c2nc(CS(=O)CC(=O)N3CCN(C)CC3)c(C)o2)c1 (configuration not stated)	-1.9	13%	-0.4%	-7.5%	0.2	21%	-67%[inhibitor]
C=CCOC(=O)C1=C[C@@H](c2csc3ccccc23)C[C@@H](OCCCCO)O1	4.8	?	2.4%	3.0%	/	/	/
